Screens deposited in PubChem by ICCB-Longwood Screening Facility, Harvard Medical School.
HCMV UL50-53 inh: disrupts HCMV UL50-UL53 complex binding. HTRF UL50-UL53 interaction, normalized percent inhibition. inhibition, % (no concentration beside the values). 190,000 tested, 0.15% active. AID 1918969;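 active = both replicates at 50% or more, plus weaker picks with an unusually low signal ratio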;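 also: stock transfer was 100 nL into about 20 µL; 0% = negative control wells and 100% = wells with untagged competitor protein; inactives centre near -12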
Sa growth inh: inhibitors of Staphylococcus aureus growth at 42 °C; S. aureus RN4220 growth, OD600, 20 h; hits give low values; relative growth, % (no concentration beside the values); 170,000 tested, 0.53% active; AID 720641;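 active = growth at 42 °C up to 50% and 20 or more points under that at 30 °C, or under 10% at both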;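 also: 300 nL library stock went into each well; scaled to the means of positive and negative controls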
GIV Gai3 FP: GIV-Galpha-i interaction inhibition; Galpha-i3/FITC-GIV peptide fluorescence polarization, 90 min; hits give low values; scaled: aluminum fluoride 0%, vehicle 100%; percent of control (FP), % (no concentration beside the values); AID 1224905; 210,000 tested, 0.42% active;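 active = replicate mean at 85% of control or lower, very high polarization wells dropped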;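 also: wells of about 15 µL received 100 nL stock; the first replicate is given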
Target sequence (P08753 whole entry, looked up): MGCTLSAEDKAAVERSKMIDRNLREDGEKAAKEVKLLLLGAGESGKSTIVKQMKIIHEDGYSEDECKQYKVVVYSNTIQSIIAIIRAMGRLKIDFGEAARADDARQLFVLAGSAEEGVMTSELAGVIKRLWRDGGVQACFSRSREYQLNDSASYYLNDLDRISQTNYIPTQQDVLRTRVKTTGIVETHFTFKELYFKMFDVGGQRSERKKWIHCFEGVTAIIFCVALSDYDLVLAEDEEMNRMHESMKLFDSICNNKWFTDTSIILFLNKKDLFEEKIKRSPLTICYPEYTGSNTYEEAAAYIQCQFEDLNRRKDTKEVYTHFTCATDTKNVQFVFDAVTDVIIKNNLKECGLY
Sa growth inh second temp: also measured in Sa growth inh; calls as there; relative growth, %; measured here: growth at 30 °C;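 optical density after 20 h as mean of two plates; 100% = untreated growth and lower means inhibition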
An asterisk follows results filed as active; x = not tested or not shown; & = joins results of further samples.

SMILES	HCMV UL50-53 inh	Sa growth inh	Sa growth inh second temp	GIV Gai3 FP
O=C(Cn1cc(SCc2ccccc2)c2ccccc21)N1CCCC1	x	114	96	102
O=C(NCCO)C12CC3CC(CC(C3)C1)C2	-32	89	79	x
CCOC(=O)c1cc(-c2ccccc2)n(CCCN2CCOCC2)c1C	4	97	64	106
CC(C)CC(=O)Nc1ccc(Cl)cn1	-14	105	92	95
CN(C)S(=O)(=O)N1CCc2ccccc2C1	9	73	89	110
CC(C)C(CCC(=O)Nc1nccs1)C(=O)O (stereo not given)	-28	x	x	105
N#Cc1ccc(-c2c(-n3cccc3)oc(-c3cccs3)c2C#N)cc1	-27	85	93	108
Cn1c2c(c(=O)n(C)c1=O)C(c1ccc(Cl)cc1Cl)C(C#N)=C(N)N2 (stereo not given)	x	96	80	105
Cc1ccc(C(C(=O)NC2CCCCC2)N(C)c2ccccc2)cc1 (stereo not given)	x	127	95	98
COc1ccc(-c2cc(C)no2)cc1S(=O)(=O)N1CC(=O)Nc2ccccc21	-21	105	85	99
COc1ccc(NC(=O)c2c(NC(=O)c3cccc(C)c3)sc3c2CCCC3)cc1	-7	96	102	112
Cc1cccn2c(=O)nc(SCC(=O)Nc3ccccc3)nc12	-36	77	79	97
CCc1c(CN2CCN(Cc3ccc4c(c3)OCO4)CC2)csc1C	31	x	x	101
COCCN1C(=O)c2cc3c(OC)ccc(OC)c3n2CC1(C)C(=O)NC1CCC(C)CC1 (stereo not given)	-12	x	x	102
COc1ccc(CNC(=O)C2CCN(C(=O)c3cc4oc5ccccc5c4n3C)CC2)cc1OC	-18	x	x	103
CCCCc1ccc(NC(=O)N=S2CCN(C(=O)c3ccc(Cl)cc3)CC2)cc1	-24	106	87	99
Cc1ccc(C)c(N2CCN(C(=O)c3noc4c3CCCCC4)CC2)c1	x	116	93	103
Cn1c(C(=O)NCc2cccc(F)c2)cc2cc(S(=O)(=O)N3CCCCC3)ccc21	x	85	80	102
CC1CC(CC(=O)Nc2nc(-c3ccccc3)cs2)C(=O)O1 (stereo not given)	-9	89	81	97
Cc1cc(NS(=O)(=O)c2ccc(NC(=O)c3ccccc3F)cc2)nc(C)n1	-8	99	92	105
COC(=O)c1ccccc1-c1ccc(/C=C(\C#N)C(=O)NCc2ccco2)o1	-28	90	81	95
Cc1ccc(CCNC(=O)C2(NS(=O)(=O)c3cccc4cccnc34)CCCCC2)cc1	x	97	85	98
CCn1cc(C2N3CC4(CC)CN2CC(CC)(C3)C4=O)c2ccccc21 (stereo not given)	-16	88	91	95
Fc1ccccc1NCc1nnc2n1CCCCC2	-31	95	81	101
O=C1N=c2ccc([N+](=O)[O-])cc2=C1c1sc(=S)n(NC(=O)c2cccnc2)c1O	-32	x	x	100
C=C(C)C1CCC(C)=C1CC/C(C)=N/NC(N)=O (stereo not given)	-6	97	103	103
c1ccc(-c2cnc(CSc3nnc(C4CC4)n3C3CC3)o2)cc1	-16	83	86	x
Cc1ccc(S(=O)(=O)N2CCCC2CO)cc1 (stereo not given)	-12	105	83	103
CC1=NN(c2ccccc2)C(=O)/C1=C/c1ccc(-c2ccccc2)o1	-10	98	94	108
Cc1ccc(Sc2ncccc2NC(=O)C(C)(C)C)cc1	3	103	88	108

23 of these compounds in another layout.
smiles,HCMV UL50-53 inh,Sa growth inh,Sa growth inh second temp,GIV Gai3 FP
CN(C)S(=O)(=O)N1CCc2ccccc2C1,9,73,89,110
CC(C)C(CCC(=O)Nc1nccs1)C(=O)O (stereo not given),-28,x,x,105
N#Cc1ccc(-c2c(-n3cccc3)oc(-c3cccs3)c2C#N)cc1,-27,85,93,108
Cn1c2c(c(=O)n(C)c1=O)C(c1ccc(Cl)cc1Cl)C(C#N)=C(N)N2 (stereo not given),x,96,80,105
Cc1ccc(C(C(=O)NC2CCCCC2)N(C)c2ccccc2)cc1 (stereo not given),x,127,95,98
COc1ccc(-c2cc(C)no2)cc1S(=O)(=O)N1CC(=O)Nc2ccccc21,-21,105,85,99
COc1ccc(NC(=O)c2c(NC(=O)c3cccc(C)c3)sc3c2CCCC3)cc1,-7,96,102,112
Cc1cccn2c(=O)nc(SCC(=O)Nc3ccccc3)nc12,-36,77,79,97
CCc1c(CN2CCN(Cc3ccc4c(c3)OCO4)CC2)csc1C,31,x,x,101
COCCN1C(=O)c2cc3c(OC)ccc(OC)c3n2CC1(C)C(=O)NC1CCC(C)CC1 (stereo not given),-12,x,x,102
COc1ccc(CNC(=O)C2CCN(C(=O)c3cc4oc5ccccc5c4n3C)CC2)cc1OC,-18,x,x,103
CCCCc1ccc(NC(=O)N=S2CCN(C(=O)c3ccc(Cl)cc3)CC2)cc1,-24,106,87,99
Cc1ccc(C)c(N2CCN(C(=O)c3noc4c3CCCCC4)CC2)c1,x,116,93,103
Cn1c(C(=O)NCc2cccc(F)c2)cc2cc(S(=O)(=O)N3CCCCC3)ccc21,x,85,80,102
CC1CC(CC(=O)Nc2nc(-c3ccccc3)cs2)C(=O)O1 (stereo not given),-9,89,81,97
Cc1cc(NS(=O)(=O)c2ccc(NC(=O)c3ccccc3F)cc2)nc(C)n1,-8,99,92,105
COC(=O)c1ccccc1-c1ccc(/C=C(\C#N)C(=O)NCc2ccco2)o1,-28,90,81,95
Cc1ccc(CCNC(=O)C2(NS(=O)(=O)c3cccc4cccnc34)CCCCC2)cc1,x,97,85,98
CCn1cc(C2N3CC4(CC)CN2CC(CC)(C3)C4=O)c2ccccc21 (stereo not given),-16,88,91,95
Fc1ccccc1NCc1nnc2n1CCCCC2,-31,95,81,101
O=C1N=c2ccc([N+](=O)[O-])cc2=C1c1sc(=S)n(NC(=O)c2cccnc2)c1O,-32,x,x,100
C=C(C)C1CCC(C)=C1CC/C(C)=N/NC(N)=O (stereo not given),-6,97,103,103
c1ccc(-c2cnc(CSc3nnc(C4CC4)n3C3CC3)o2)cc1,-16,83,86,x

(listing goes on)
SMILES	HCMV UL50-53 inh	Sa growth inh	Sa growth inh second temp	GIV Gai3 FP
CC(C(=O)NCc1ccc2c(c1)OCO2)C1Sc2ccccc2NC1=O (stereo not given)	-1	107	94	106
CC(=O)N1N=C(c2ccc(Br)cc2)OC1c1cc2ccccc2nc1Cl (stereo not given)	5	x	x	101
COCCNC(=O)CCCn1c(=O)[nH]c2ccsc2c1=O	-20	96	92	101
Cc1ccc(O)c(C2=Nc3ccccc3N=C(C(F)(F)F)C2)c1	-11	71	96	x
O=C(Nc1nc2ccccc2n1CCN1CCCCC1)C1CCCCC1	0	x	x	102
CCCCN1C(=O)C2NN=C(C(=O)OC)C2C1=O (stereo not given)	-22	118	100	102
CN(C(=O)CSc1nc2ccccc2n1CC(=O)N(C)c1ccc(F)cc1)c1ccccc1	x	112	86	102
CN1CCN(C(=O)c2ccc(F)cc2)c2cccnc21	-22	x	x	103
CCOC(=O)c1c(NC(=O)c2cc(OC)c(OC)c(OC)c2)sc(C(=O)Nc2cc(C(F)(F)F)ccc2Cl)c1C	-12	x	x	93
c1cncc(CNC2C3CC4CC(C3)CC2C4)c1 (stereo not given)	x	106	78	109
CC1CCc2cc(F)ccc2N1C(=O)CN1C(=O)c2ccccc2C1=O (stereo not given)	x	114	81	103
CCOc1ccc(C(=O)N2CCC(c3nc(-c4ccc(S(=O)(=O)N5CCCC5)cc4)no3)CC2)cc1	-33	102	88	101
Cc1cc(C)c2c(=O)n(-c3ccccc3)[nH]c2n1	-38	94&101	92&91	99&104
CC(=O)N1CCc2c(sc3c2c(=O)n(-c2ccccc2)c(=O)n3CC(=O)Nc2ccccc2C)C1	8	84	96	99
O=C(Nc1ccccc1C(=O)NCCN1CCOCC1)C1=CSCCO1	-6	106	103	106
CNc1c(NC(=O)CC(=O)OC)c(=O)oc2ccccc12	-25	96	82	99
CCOC(=O)c1cc(-c2csc(Nc3ccccc3Cl)n2)on1	-17	118	95	101
O=C1CC2(CCCC2)C(=O)N1c1ccc(S(=O)(=O)N2CCSCC2)cc1Cl	x	108	86	106
O=C(Nc1cccc(F)c1)c1ccc(-c2ccccc2)s1	1	118	98	104
COc1ccccc1CCNC(=O)CCc1c(C)c2cc3c(C)c(C)oc3cc2oc1=O	12	104	97	105
C/C(=N/NC(=O)c1sc(NS(=O)(=O)c2ccc(C)cc2)nc1C)c1sc(N)nc1C	-22	114	104	104
CC(=O)OC1CCC2C3CCc4cc(O)ccc4C3CCC12C (stereo not given)	-23	97	91	x
CCC(=O)n1nc(C)c(S(=O)(=O)N2CCc3ccccc3C2)c1C	-20	x	x	107
CCCc1cc2c(=O)c(-c3ccc(C(=O)OCC)o3)c(C(=O)OCC)oc2cc1OC(C)=O	1	x	x	102
O=C(Nc1nnc(-c2ccccc2)o1)c1ccccc1	18	0.0*	-0.2*	108
O=C(Nc1cc(C(F)(F)F)ccc1N1CCOCC1)c1cccs1	-16	102	88	95
N#Cc1cc2c(=O)n3ccccc3nc2n(C2CCCC2)c1=N	x	83	90	109
Cc1ccc(Cl)cc1NC(=O)N1CCC(C)(C(=O)NCc2ccc3c(c2)OCO3)CC1	6	x	x	100
COCCN(Cc1ccccc1)C(=O)C1CC(=O)N(c2cc(C)ccc2OC)C1 (stereo not given)	-19	78	92	x
COc1cc(-c2noc(CCCC(=O)Nc3ccccc3C(F)(F)F)n2)cc(OC)c1OC	-7	93	85	103
Cc1cc(C)c(C#N)c(SCC(=O)c2ccccc2)n1	-21	78	90	x
O=C(Cc1ccccc1)Nc1ccc(Cc2ccncc2)cc1	5	100	87	100
CCn1c(O)c(C=Nc2cccc(OC)c2)c(=O)[nH]c1=S	1	105	79	96
COC(=O)c1cc2c(=O)n3ccccc3nc2n(CCCO)c1=N	-144	94	88	101
COc1cc(C2C(C(=O)Nc3nc4ccccc4s3)=C(C)NC3=C2C(=O)CC(C)(C)C3)ccc1O (stereo not given)	-11	x	x	101
O=c1oc2c(Cl)cc(Cl)cc2cc1-c1nnc(-c2ccc([N+](=O)[O-])cc2)o1	-13	x	x	98
Clc1ccc(-c2noc(C3CCNCC3)n2)cc1	-1	131	56	101
Cc1cnc(C(=O)NCC23CC4CC(CC(C4)C2)C3)cn1	-34	71	98	x
CC1(C)CC(=O)C2=C(C1)OC(c1cccs1)C(C#N)=C2N (stereo not given)	x	98	86	98
COc1ccc(NC(=O)C(Cc2ccccc2)NS(=O)(=O)c2cccc3cccnc23)cc1OC (stereo not given)	-20	x	x	106
Cc1ccc(CNC(=O)c2cc3c(s2)-c2c(C)cccc2OC3)cc1	-6	107	68	106
FC(F)(F)c1cc(-c2csnn2)cc(C(F)(F)F)c1	0	96	96	102
CC(CS(=O)(=O)c1ccc2c(c1)NC(=O)C(C)S2)C(=O)N1CCc2ccccc21 (stereo not given)	-32	100	96	103
Cc1cc(C)c(NS(=O)(=O)c2ccc(-c3coc(C)n3)cc2)c(C)c1	x	103	85	106
COc1ccc2c(c1)sc1ncc(C(=O)NCc3ccc(OC(C)C)cc3)c(=O)n12	-17	101	91	96
CCOC(=O)CSc1nc(N2CCCCC2)c2c(c1C#N)CCCC2	-19	x	x	107
O=C(/C=C1/Sc2ccccc2N(Cc2ccccc2F)C1=O)N1CCCC1	-26	98	83	102
Cc1cn2c(=O)c(C(=O)NCC3CCCC(CNC(=O)c4cnc5sc(C)cn5c4=O)C3)cnc2s1 (stereo not given)	-5	76	86	97
CC1CCCC(NC(=O)c2ccc(C#N)cc2)C1C (stereo not given)	-26	107	86	x
Cc1nnc(NC(=O)C2CCN(S(=O)(=O)c3ccc4c(c3)CCC4)CC2)o1	5	113	99	x
S=C(NC(Cc1ccccc1)c1ccccc1)NC1CC2C=CC1C2 (stereo not given)	-18	59	64	105
CSc1nnc(SC)n1/N=C(/N)c1cccc(C(F)(F)F)c1	-3	110	67	103
CN1CC2(C)CN(C(=O)c3ccccc3Cl)CC(C)(C1)C2	-10	94	94	103
